Source: PubChem BioAssay (National Center for Advancing Translational Sciences (NCATS))
SARS PLP yeast: inhibitors of SARS-CoV papain-like protease in yeast. S. cerevisiae expressing SARS-CoV PLpro, growth rescue; control for the full effect not named in the record. Potency, µM (series often up to 32.9 µM), for inactives: top-dose activity, positive = growth rescue. 0.19% of 330,000 active; active means well fitted rising curve with a large enough effect; inconclusive means small, poorly fitted or top-dose-only effect; inactive means no such curve, though single readings can be large or run the other way; further: 0% is about no effect; nearly all actives have a fitted effect of over 55% in size; growth read by luminescence after 48 h
RE007 growth inh: less growth of the S. pombe RE007 Vpr strain; S. pombe RE007 Vpr strain, BacTiter-Glo ATP luminescence, 24 h; control for the full effect not named in the record; Potency, µM (series often up to 92.2 µM), for the others: top-dose activity change, negative = less growth; 0.21% of 360,000 active; AID 651644; active = well fitted falling curve with a large enough effect; inconclusive = small, poorly fitted or top-dose-only effect; inactive = no such curve, though single readings can be large or run the other way;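 further: on the % scale 0 is the no-effect control and ±100 the full control effect; nearly all actives have a fitted effect of over 50% in size; the assay follows cell death caused by Vpr and the record does not say whether a fall means rescue or toxicity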
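Fission yeast RE007 carrying one integrated HIV-1 vpr copy, seeded at OD 0.01 in PMG+AL medium with 23 nL pinned compound. Grown 24 h at 30 degrees; viability read by BacTiter-Glo luminescence after 5 min.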
StopGo reporter: FMDV 2A StopGo reporter, luciferase signal. AID 1159524. human cells with a luciferase reporter of 2A StopGo recoding; control for the full effect not named in the record. Potency, µM (titrated, usually from 57.9 µM), without a hit: at the top dose signal change, negative = less light. 1.2% of 410,000 active; active = well fitted falling curve with a large enough effect; inconclusive = small, poorly fitted or top-dose-only effect; inactive = no such curve, though single readings can be large or run the other way; tested in HEK293T cells; further: on the % scale 0 is the no-effect control and ±100 the full control effect; nearly all actives have a fitted effect of over 45% in size; luciferase light after 4 h
An asterisk follows results filed as active; ? = inconclusive; [ ] = remark or other dose. Potency means the concentration at half of the fitted maximal effect. A portion of the library; rates above refer to the full screens.

cpd | compound | SARS PLP yeast | RE007 growth inh | StopGo reporter
1 | CCCN(C(=O)CSc1nc(C2CC2)n(-c2ccccc2)n1)C1CCS(=O)(=O)C1 (stereo not drawn) | -3% | -3% | -1%
2 | COC(=O)[C@]12C(=O)NC[C@H](CN1c1ccc(C(F)(F)F)cc1)N2C | 7% | -6% | -2%
3 | CN(CCN(C)C(=O)c1[nH]cnc1C(=O)Nc1ccccc1)C(=O)c1[nH]cnc1C(=O)Nc1ccccc1 | 5% | -1% | -7%
4 | O=C(Nc1ccc2nc(N3CCOCC3)sc2c1)c1ccc(F)cc1 | 1% | 3% | 18%
5 | O=C1C=C(c2ccnc3cc(Cl)ccc23)C[C@@H](c2ccc3c(c2)OCO3)C1 | -14% | -3% | ?
6 | CN(C(=O)CSc1nnc(-c2ccc3c(c2)OCO3)o1)C1CCS(=O)(=O)C1 (stereo not drawn) | 15% | 12% | -20%
7 | O=[N+]([O-])c1cccnc1NCc1cccs1 | 1% | -2% | 1%
8 | CC(C)CCCN1C(N(C)C)=NC[C@@H]1Cc1ccccc1 | 1% | -7% | -27%
9 | CCCCNC(=O)C(CC)(ONc1ccccc1C(F)(F)F)c1ccccc1OC (stereo not drawn) | -14% | -9% | -16%
10 | O=C(NNC(=O)c1cc(S(=O)(=O)N2CCCCC2)ccc1Cl)c1ccccc1O | 0% | -8% | 7%
11 | [O-][n+]1ccccc1SCc1ccccc1 | -2% | -10% | -7%
12 | CC1CCN(C(=O)c2ncn(Cc3ccccc3)c2C(=O)N2CCC(C)CC2)CC1 | 2% | -3% | 9%
13 | O=C(Cn1nc(C(=O)O)c2ccccc2c1=O)Nc1cc(C(F)(F)F)ccc1-n1cncn1 | -2% | -6% | -11%
14 | CCCN(CCC)CC(O)Cn1cc(/C=C/C(=O)c2ccccc2)c2ccccc21 (stereo not drawn) | -5% | -8% | -19%
15 | CCN[C@@H](C)Cc1cccc(C(F)(F)F)c1 | 0% | -14% | -23%
16 | COc1cccc(/C=C/C(=O)OCC(=O)c2ccccc2)c1OC | -4% | -23% | 8%
17 | CCCCC[C@@H]1C=C(C(=O)O)[C@H](c2ccc(CC)cc2)N1S(=O)(=O)c1ccc(C)cc1 | 0% | -6% | -2%
18 | O=C1C=C(c2ccc(F)c(Cl)c2)C[C@@H](c2ccc(F)cc2)C1 | -5% | 11% | -23%
19 | O=C(CNC(=O)c1ccc(Br)o1)NCC1COc2ccccc2O1 (stereo not drawn) | 4% | -6% | 29%
20 | Cc1ccc(C(=O)OCC(=O)NCc2ccccc2)cc1S(=O)(=O)N1CCCCC1 | 1% | 2% | -13%
21 | Cc1ccc(C)c(S(=O)(=O)N2CCN(C(=O)CN3C(=O)NC(C)(C)C3=O)CC2)c1 | 2% | -1% | -7%
22 | CC1CCCCN1C(=O)c1cccc(NC2=C(Cl)C(=O)N(Cc3ccccc3)C2=O)c1 (stereo not drawn) | -4% | 0% | ?
23 | Cc1ccc([C@@H]2CC=C(C(=O)O)[C@H](c3ccc(C(C)(C)C)cc3)N2S(=O)(=O)c2ccc(C)cc2)cc1 | -15% | 1% | -7%
24 | C[C@H](CO)N1C[C@H](C)[C@@H](CN(C)C(=O)NC2CCCCC2)Oc2c(NC(=O)Nc3ccc(C(F)(F)F)cc3)cccc2C1=O | -1% | -20% | -14%
25 | COc1ccccc1C(CNC(=O)c1cccc(S(=O)(=O)Nc2ccc(F)cc2)c1)N(C)C (stereo not drawn) | 0% | 4% | 18%
26 | CCOc1ccc(NC(=O)c2cc(C3CC3)nc3c2cnn3C(C)C)cc1OC | -25% | -8% | -13%
27 | O=C(CCN1CCN(Cc2ccccc2)CC1)NNC(=O)c1cc2ccccc2o1 | -3% | -9% | -12%
28 | CCN(CC(=O)Nc1ccc(NC(C)=O)cc1)C(=O)c1ccccc1Sc1ccccc1C#N | 0% | 5% | -1%
29 | Cc1ccc(C(=O)N(C)Cc2ccc(N3CCOCC3)cc2)cc1S(=O)(=O)NCc1ccccc1 | -2% | 2% | 12%
30 | COc1ccc(NC(=O)CN(C)CC(=O)N(C)C2(C#N)CCC(C)CC2)cc1 (stereo not drawn) | -5% | 1% | -22%
31 | COc1ccc(C(=O)Nc2cc(Cl)ccc2-n2cncn2)c(OC)c1OC | -5% | -1% | ?
32 | COc1ccccc1CNC(=O)CCNS(=O)(=O)/C=C/c1ccc(C)cc1 | 1% | 18% | 17%
33 | Cc1nnc(NC(=O)C2CCN(S(=O)(=O)c3cc([N+](=O)[O-])ccc3Cl)CC2)o1 | -3% | -1% | -11%
34 | CCOC(=O)[C@H]1[C@H]2COc3ccccc3[C@@H]2N2C(=O)c3cc(F)c(F)cc3NC(=O)[C@@]12C | 4% | 1% | -19%
35 | COc1ccc(CNC(=O)C[C@H]2C[C@H](C(=O)N(C(C)C)C(C)C)[C@@]3(C)c4[nH]c5cc(CCC(=O)N(C)C)ccc5c4CCN3C2=O)cc1OC | 5% | -5% | -4%
36 | COc1ccc(NC(=O)CN(C)C(=O)C2CSC3(C)CCC(=O)N23)cc1 (stereo not drawn) | -3% | 0% | -5%
37 | Cc1ccc(C(=O)OC(C)C(=O)N(C)C2CCCCC2)cc1S(=O)(=O)N1CCCCC1 (stereo not drawn) | 8% | -4% | ?
38 | COc1ccc2c(c1)OC[C@H]1[C@@H]2N2C(=O)CNC(=O)[C@@]2(C)[C@H]1c1ccccc1 | -9% | -6% | -22%
39 | C[C@H](CO)N1C[C@H](C)[C@@H](CN(C)S(=O)(=O)c2cccs2)Oc2ccc(NC(=O)Nc3ccc4c(c3)OCO4)cc2C1=O | 3% | -12% | -24%
40 | CC(C)Oc1ccc(C(=O)OCC(=O)NC(=O)NC2CCCC2)cc1 | 8% | -4% | 0%
41 | O=C(CNC(=O)C1CCCCC1)OCC(=O)c1cccc(Cl)c1 | 5% | -1% | -4%
42 | c1ccc(Cn2cc(-c3ccccc3)cn2)cc1 | 0% | -8% | ?
43 | CC1(C)CC(=O)C=C(c2cccc3c2sc2ccccc23)C1 | -16% | 8% | 29%
44 | COCCNc1nc2c(S(=O)(=O)c3cc(C)ccc3C)nnn2c2ccccc12 | 2% | -3% | 19%
45 | N#Cc1ccccc1S(=O)(=O)N1CCC(C(=O)NCc2ccccc2CN2CCCC2)CC1 | -1% | 7% | -15%
46 | O=C(Nc1ccon1)c1nc[nH]c1C(=O)NCc1ccccc1 | 7% | 1% | -12%
47 | COc1ccc(N=C2NC(=O)CS2)c([N+](=O)[O-])c1 | -1% | 5% | -4%
48 | O=C(/C=C/c1ccccc1Cl)Nc1ccc(S(=O)(=O)Nc2ncccn2)cc1 | 0% | 16% | 8%
49 | COc1cccc(NC(=S)N(Cc2ccc(Cl)cc2)Cc2ccc(C(=O)O)cc2)c1 | -1% | 8% | -12%
50 | CCOC(=O)Cc1csc(SCC(=O)NC2CCS(=O)(=O)C2)n1 (stereo not drawn) | -9% | 5% | -3%

Further results.
cpd | compound | SARS PLP yeast | RE007 growth inh | StopGo reporter
51 | NS(=O)(=O)c1ccc(CCNC(=O)CCC(=O)c2cccs2)cc1 | -3% | -9% | 45%[activator]
52 | COc1ccc(C2=NN(C(N)=S)C(c3ccco3)C2)cc1 (stereo not drawn) | ? | 24% | 19%
53 | C=CC[C@@H](CC(=O)N[C@H](CO)Cc1ccccc1)C(=O)N[C@H](COC(=O)[C@@H](CC=C)CC(=O)OC(C)(C)C)Cc1c[nH]c2ccccc12 | 4% | 5% | ?
54 | CCN(C(=O)CN1C(=O)NC(CCSC)C1=O)C1CCS(=O)(=O)C1 (stereo not drawn) | 5% | 14% | -16%
55 | CC(=O)NC(CC(=O)Nc1nc(C)cs1)c1ccccc1 (stereo not drawn) | -3% | -1% | -1%
56 | COc1ccc(N2CCN(C(=O)COC(=O)CCc3ccccc3)CC2)cc1 | 8% | 42% | 1%
57 | COC(=O)c1ccc(NC(=O)CNC(=O)c2sc3ccccc3c2Cl)cc1 | 1% | 7% | -1%
58 | O=C(O/N=C(\c1ccccc1)c1ccncc1)c1ccccc1Cl | -16% | -17% | -2%
59 | COc1ccc(Cl)cc1NCC(=O)Nc1ccc(OC)c(S(=O)(=O)N2CCCCC2)c1 | 0% | 5% | 14%
60 | CC(=O)N1CCN(C(=O)CCNS(=O)(=O)c2ccccc2)CC1 | 0% | 5% | -7%
61 | C=CC[C@H](CC(=O)N(CCO)Cc1ccccc1)C(=O)N[C@H](C)COC(=O)[C@@H](CC=C)CC(=O)OC(C)(C)C | -6% | 13% | -9%
62 | O=C(NCC1CCCO1)c1cc(S(=O)(=O)N2CCCCC2)ccc1Cl (stereo not drawn) | 7% | -1% | -13%
63 | Cc1ccc(C[n+]2c(-c3ccc(C)cc3)cc(-c3ccc(C)cc3)cc2-c2ccc(C)cc2)cc1 | -1% | -13% | ?
64 | COc1ccc(C)cc1Nc1n[n+](-c2ccccc2)c(-c2c(OC)ccc3ccccc23)s1 | -3% | -10% | ?
65 | C[C@H](CO)N1C[C@H](C)[C@@H](CN(C)C(=O)NC2CCCCC2)Oc2ccc(NS(=O)(=O)c3ccccc3)cc2C1=O | 0% | -28% | -12%
66 | O=C(CSc1ccccc1C(=O)O)Nc1ccc2c(c1)OCO2 | 1% | -15% | -4%
67 | CCc1ccc(OCC(=O)Nc2ncn[nH]2)cc1 | 1% | 2% | 44%[activator]
68 | CCC1(CC)NC(=O)N(CC(=O)Nc2ccc(S(=O)(=O)N3CCOCC3)cc2)C1=O | 0% | 4% | -8%
69 | CCOC(=O)/C(C#N)=C/c1cn(CCC(=O)O)nc1-c1ccc(F)cc1 | 0% | 7% | 6%
70 | Cc1ccc(NC(=S)N(Cc2ccc(Cl)cc2)Cc2ccc(C(=O)O)cc2)cc1Cl | -18% | 16% | -23%
71 | COc1ccc(NC(=O)N(C)C[C@H]2Oc3c(NS(=O)(=O)c4cccs4)cccc3C(=O)N([C@H](C)CO)C[C@@H]2C)cc1 | -2% | -3% | 14%
72 | COc1ccc(N(C(=O)c2ccc(Br)o2)C2C=CS(=O)(=O)C2)c(OC)c1 (stereo not drawn) | 0% | 11% | -6%
73 | C[C@@H]1CN([C@@H](C)CO)C(=O)c2cccc(NC(=O)Nc3ccc4c(c3)OCO4)c2O[C@H]1CN(C)S(=O)(=O)c1cn(C)cn1 | 7% | 1% | -13%
74 | CNc1nnc(SCC(=O)N2c3ccccc3NC(=O)CC2C)s1 (stereo not drawn) | 7% | 0% | -26%
75 | Cc1ccc(C)c(S(=O)(=O)N2CCCOC2CNC(=O)C(=O)NCc2cccnc2)c1 (stereo not drawn) | 1% | 7% | 9%
76 | Cc1onc(-c2ccccc2)c1C(=O)Nc1ccc(Cl)c(S(=O)(=O)N2CCOCC2)c1 | 9% | 0% | ?
77 | Cc1ccc(S(=O)(=O)N2CCOCC2)cc1C(=O)NCc1ccccn1 | -6% | -8% | -15%
78 | C[C@H](CO)N1C[C@H](C)[C@@H](CN(C)Cc2ccc(-c3ccccc3)cc2)Oc2c(NC(=O)Nc3ccc(C(F)(F)F)cc3)cccc2C1=O | 1% | -2% | -23%
79 | CCN(C[C@H]1N[C@@](C)(C(=O)OC)[C@H]2C(=O)N(C)C(=O)[C@@H]12)C(=O)Nc1ccc(F)cc1 | -6% | 0% | -15%
80 | CCCCOc1ccc(C(=O)NCC(=O)NCCOc2ccc(C)cc2)cc1 | 0%[6.58 µM] | 5% | 13%
81 | CCOc1ccc2oc(C(=O)NCc3ccccc3CN3CCCC3)c(C)c2c1 | 2% | -5% | ?
82 | Cc1ccc(S(=O)(=O)N2CCCCC2)cc1NC(=O)CSc1nc(N)cc(=O)[nH]1 | -2% | 3% | -14%
83 | Cc1ccc2c(c1)CCCN2CC(=O)Nc1cccc(S(=O)(=O)N2CCCC2)c1 | 2% | -5% | 13%
84 | O=C(CCNC(=O)c1ccc(Br)cc1)NCCCN1CCOCC1 | 10% | 2% | -16%
85 | O=C(O)c1ccc(N2C(=O)CSC2c2cccc([N+](=O)[O-])c2)cc1 (stereo not drawn) | -2% | 11% | 1%
86 | CC(OC(=O)Cc1c[nH]c2ccccc12)C(=O)c1ccccc1 (stereo not drawn) | -3% | 4% | 4%
87 | Cc1n[nH]c(=O)c2c(NC(=O)COC(=O)c3ncc(Cl)c(Cl)c3Cl)oc(C)c12 | -1% | -9% | 0%

In another format: results already given
81. CCOc1ccc2oc(C(=O)NCc3ccccc3CN3CCCC3)c(C)c2c1
  SARS PLP yeast: 2%; RE007 growth inh: -5%; StopGo reporter: ?
83. Cc1ccc2c(c1)CCCN2CC(=O)Nc1cccc(S(=O)(=O)N2CCCC2)c1
  SARS PLP yeast: 2%; RE007 growth inh: -5%; StopGo reporter: 13%
79. CCN(C[C@H]1N[C@@](C)(C(=O)OC)[C@H]2C(=O)N(C)C(=O)[C@@H]12)C(=O)Nc1ccc(F)cc1
  SARS PLP yeast: -6%; RE007 growth inh: 0%; StopGo reporter: -15%
87. Cc1n[nH]c(=O)c2c(NC(=O)COC(=O)c3ncc(Cl)c(Cl)c3Cl)oc(C)c12
  SARS PLP yeast: -1%; RE007 growth inh: -9%; StopGo reporter: 0%
